VACV mCherry inh – vaccinia inhibition (mCherry reporter). Vaccinia virus mCherry reporter infection, fluorescence; about a quarter of the inactives have no number. Potency, µM (titrated, usually from 36.5 µM), inactives show at the highest dose activity change, negative = inhibition, most hits filed as inhibitors. 310,000 tested, 0.63% active. AID 720579; active = well fitted inhibition curve with a large enough effect; inconclusive = small, poorly fitted or top-dose-only effect; inactive = no such curve, though single readings can be large or run the other way; tested in A549 cells; further: nearly all actives have a fitted effect of over 35% in size; inactives centre near -10
VACV Venus inh – vaccinia inhibition (Venus reporter); 330,000 tested, 0.46% active; Vaccinia virus Venus reporter expression, fluorescence; Potency, µM (series often up to 36.5 µM), for inactives: top-dose activity change, negative = inhibition, hits mostly inhibitors; active means well fitted inhibition curve with a large enough effect; inconclusive means small, poorly fitted or top-dose-only effect; inactive means no such curve, though single readings can be large or run the other way; tested in A549 cells; further: nearly all actives have a fitted effect of over 30% in size; inactives centre near -10
Numbers without * were called inactive; i = inactive; ? = inconclusive; / = not tested or not shown; & = joins results of further samples; [ ] = another dose, or the depositor's remark. On the % scale 0 is the no-effect control and ±100 the full control effect; potency means the concentration at half of the fitted maximal effect. Not a hit list. Share with any hit: about 0.87%.

SMILES | VACV mCherry inh | VACV Venus inh
COc1ccccc1N1CCN(/N=C/c2ccc(O)c(O)c2)CC1 | ? | -4.4%
Cc1c(OCC(=O)NCC(O)c2ccccc2)ccc2c(-c3ccccc3)cc(=O)oc12 (centres undefined) | -4.9% | -17.2%
Cc1ccc(Cl)cc1N1CCN(C(=O)C2CCCN(S(=O)(=O)c3cnc[nH]3)C2)CC1 (centres undefined) | 10.6% | -3.9%
Nn1c(SCC(=O)Nc2cccc(C(F)(F)F)c2)nncc1=O | -12.7% | -7.0%
COc1cccc(CNC(=S)Nc2ccc(Cl)cc2C)c1 | -21.0% | -3.0%
COCCN(C(=O)CCC(=O)Nc1cc(C)on1)C(C(=O)NC1CCCC1)c1ccc(C(C)C)cc1 (centres undefined) | 7.6% | -7.6%
CCOc1ccc(CN(C)C(=O)[C@H](Cc2ccccc2)NC(=O)OCc2ccccc2)cc1OC | ? | -27.4%
O=C(C[n+]1ccccc1Cl)c1ccc(I)cc1 | -19.3% | -12.9%
CCOc1ccccc1NC(=O)CN1C(=O)CC(c2ccc(OC)c(OC)c2)Sc2ccccc21 (centres undefined) | -19.9% | -12.1%
O=C(O)c1cccc2c1C(=O)c1ccc(-c3ccc(Cl)c(C(F)(F)F)c3)cc1S2(=O)=O | i | -9.5%
COc1ccc(NC(=S)N(CCN(C)C)C(C)c2ccco2)cc1Cl (centres undefined) | -6.8% | -17.0%
Cc1ccc2nc(C)cc(NCCO)c2c1 | / | 16.8%
COc1cccc(C(C)NC(=O)Nc2cc(Cl)ccc2OC)c1 (centres undefined) | -10.6% | -15.7%
O=C(Nc1ccc(Cl)cc1)N1CCC(c2nc(-c3ccccc3Cl)no2)CC1 | -24.2% | ?
COC(C(=O)C(O)C(C)O)C1Cc2cc3cc(OC4CC(OC5CC(O)C(O)C(C)O5)C(O)C(C)O4)c(C)c(O)c3c(O)c2C(=O)C1OC1CC(OC2CC(OC3CC(O)C(OC)C(C)O3)C(O)C(C)O2)C(O)C(C)O1 (centres undefined) | ? | ?

The list goes on (3 carried over from the part before).
SMILES | VACV mCherry inh | VACV Venus inh
COc1cccc(C(C)NC(=O)Nc2cc(Cl)ccc2OC)c1 (centres undefined) | -10.6% | -15.7%
O=C(Nc1ccc(Cl)cc1)N1CCC(c2nc(-c3ccccc3Cl)no2)CC1 | -24.2% | ?
COC(C(=O)C(O)C(C)O)C1Cc2cc3cc(OC4CC(OC5CC(O)C(O)C(C)O5)C(O)C(C)O4)c(C)c(O)c3c(O)c2C(=O)C1OC1CC(OC2CC(OC3CC(O)C(OC)C(C)O3)C(O)C(C)O2)C(O)C(C)O1 (centres undefined) | ? | ?
CC1CCN(c2ccc(NC(=O)c3cccc(Cl)c3)cc2C(=O)O)CC1 | -8.4% | -2.6%
Cc1ccccc1-n1cc(-c2ccc(Br)cc2)nc1SCC(N)=O | -3.2% | -22.4%
CN(C(=O)COC(=O)c1ccccc1C(=O)N1CCN(c2ccccc2)CC1)c1ccccc1 | -18.5% | -9.0%
O=c1[nH]c(CN2CCN(c3ccccn3)CC2)nc2c(Br)cc(Br)cc12 | 4.9% | -6.2%
O=S(=O)(c1ccc(Cl)cc1)N1CCOCC1 | -7.7% | -13.5%
COc1cccc(-c2cncnc2NCc2ccccc2)c1 | -9.3% | -12.4%
O=C(NCCCO)C(=O)Nc1c2c(nn1-c1ccccc1)CSC2 | 1.7% | -13.5%
CC(=O)OC1(C(C)=O)CCC2C3CC(Cl)C4=CC(=O)CCC4(C)C3CCC21C (centres undefined) | -2.8% | -22.6%
Cc1ccc(CNC(=O)c2cc3sccc3n2Cc2ccc(Cl)cc2)cc1 | -3.1% | 0.4%
Cc1ccc(S(=O)(=O)C/N=C(/NC(=S)N(c2ccccc2)c2ccccc2)c2ccccc2)cc1 | -4.9% | -9.4%
COCCn1nnnc1CN1CCN2CCCC2C1 (centres undefined) | -10.9% | 5.1%
COc1cccc(CNC(=O)Nc2ccc3c(c2)N(C)C(=O)c2ccccc2S3)c1 | -21.3% | -26.5%
CCc1nc2c(OCc3ccc(C(F)(F)F)cc3)cccn2c1N(C)C(=O)CC(C)C | -0.7% | -22.2%
CC(C)(C)NC(=O)c1oc2ccccc2c1NC(=O)c1ccccc1F | -18.5% | 0.9%
COc1cc(C2CC(=O)C=C(O)C2)cc(OC)c1OC (centres undefined) | i | -9.3%
CN1CCN(c2ccc(-c3ccnn3C(=O)Nc3ccccc3)cc2)CC1 | -2.4% | 0.8%
CC(=O)N1N=C(c2ccc(C)cc2)CC1c1cn(-c2ccccc2)nc1-c1cccs1 (centres undefined) | -12.6% | -13.4%
COC(=O)c1ccc(NS(=O)(=O)c2ccc(Cl)cc2)o1 | -1.8% | 0.0%
O=c1cc(SCc2ccc(Cl)cc2Cl)nc[nH]1 | i | -13.7%
Cc1c(C(=O)Nc2ccc(Br)cc2F)sc2ncnc(N(C)C3CCCCC3)c12 | 28.0% | 21.4%
CCN1CCCC1CNc1ncnc2c1[nH]c1ccc(Cl)cc12 (centres undefined) | / | -22.7%
COc1ccc(CC(=O)NCC(=O)NC(Cc2ccccc2)C(=O)O)cc1 (centres undefined) | -11.3% | -27.1%
CC1(C)OC(=O)N(Cc2ccco2)C1(C)O (centres undefined) | / | -5.5%
O=c1c2cn[nH]c2nc(SCc2cccc(Br)c2)n1-c1ccc(Cl)cc1 | -12.0% | -13.8%
O=C(COc1ccccc1)N(Cc1cc2ccccc2[nH]c1=O)CC1CCCO1 (centres undefined) | -11.8% | -22.6%
CC(=O)NC(NC(C)=O)c1cccc(OCc2ccccc2)c1 | i | -0.7%
Cc1cccn2cc(-c3cccc(S(=O)(=O)N4CCOCC4)c3)nc12 | -12.9% | -17.8%
Cc1ccc(Cl)cc1-n1nnc(-c2nc(-c3ccc4c(c3)OCO4)no2)c1C | -16.4% | -3.6%
CC(C)CNC(=O)C1Nc2ccccc2C2C=CCC12 (centres undefined) | -1.4% | -8.8%
NC(=O)c1nc(C(=O)N2CCN(c3ccccc3)CC2)c2ccccc2n1 | -21.4% | -15.3%
O=C(OCC#CCSc1nc2ccccc2o1)c1cc2ccccc2o1 | / | -12.6%
O=C(COC(=O)Cc1ccc(Br)cc1)NC1CCCCC1 | -3.7% | -11.8%
O=C(CCNC(=O)Cn1cnc2ccccc2c1=O)NCCC1=CCCCC1 | -14.0% | -14.8%
CC(C)(C)OC(=O)C[C@H]1C/C=C\C[C@@H](CC(=O)N[C@@H](CO)Cc2ccccc2)C(=O)NC[C@H](c2ccccc2)OC1=O | i | -5.0%
COc1ccc(N2CCN(c3nc(C)c(C)c(=O)[nH]3)CC2)cc1 | -12.7% | -9.2%
CC(CCCCCCCCC(=O)O)N(CCO)C(=O)OC(C)(C)C (centres undefined) | -0.9% | -18.6%
COc1ccccc1C(CNc1nc(C(F)(F)F)nc2ccccc12)N(C)C (centres undefined) | -17.1% | -3.7%
O=C(NCc1ccccc1)c1ccc2c(c1)N(Cc1cccc(Cl)c1)C(=O)c1ccccc1S2(=O)=O | -5.3% | -9.9%
CCC(C)[C@H](NC(=O)OC(C)(C)C)C(=O)N/N=C/c1ccc2nccnc2c1 (some centres undefined) | i | -17.5%
COc1ccc(Nc2cc(C(=O)NC3CCCC3)c3ccccc3n2)c(OC)c1 | -22.7%&-3.3% | -4.7%&6.0%
Cc1ccc2ccc(C)[n+](CCCS(=O)(=O)[O-])c2c1 | -1.3% | -2.9%
CCN1CCN(C(=S)NCC(C)C)CC1 | -15.8% | -16.7%
CCN(Cc1ccccc1)C(=O)C1CCC(CNS(=O)(=O)c2ccc3c(c2)CCCC(=O)N3)CC1 (centres undefined) | -29.4% | -21.1%
COc1ccccc1NNC(=O)c1cccnc1Oc1ccccc1 | -15.0% | 8.4%
CC(C)Cc1nc2ccccc2[nH]1 | -16.8% | -6.5%
O=C(CSc1nccn1-c1cccc(Cl)c1)NO | ? | -21.5%
O=C(N/N=C/c1c(O)ccc2ccccc12)c1ccc(Br)o1 | 2.82µM* | ?
C/C=C/C(=O)OCC(=O)Nc1ccc(OC)c(Cl)c1 | 8.91µM* | 10µM*
NC(=O)c1c[nH]c2ccccc12 | -10.9% | -5.5%
COc1ccc2c(c1)c(=O)c(C(=O)c1ccccc1)cn2CC(=O)Nc1ccc2c(c1)OCO2 | -3.6% | -4.7%
CCCc1nc2cc(Cl)c([N+](=O)[O-])cc2o1 | -29.4% | -11.1%
Cc1cnc(C(=O)OCC(=O)c2ccc(F)cc2)cn1 | -11.5% | -1.6%
Cc1cc(C)n2nc(SCC(=O)c3c(N)n(CC(C)C)c(=O)n(C)c3=O)nc2n1 | i | -0.5%
CC(NC(=O)COC(=O)c1ccc2c(c1)OCO2)c1ccccc1 (centres undefined) | -4.2% | -3.7%
O=C(Nc1cccc(C(=O)NC2CCCC2)c1)c1ccccc1 | -6.8% | 0.3%
Cn1c(=O)c2cc(NC(=O)NCCc3ccccc3)ccc2n1Cc1ccccc1 | -14.4% | -7.8%
Cc1nn(C(=O)c2cccc([N+](=O)[O-])c2)c(C)c1Sc1ccccc1 | -15.4% | -1.8%
CCC/C(=N\NC(=O)c1csc(C)c1C)c1cccs1 | ? | -26.4%
O=C1c2ccccc2C(=O)N1c1cccnc1 | -6.4% | -3.0%
COC(=O)c1cc(S(=O)(=O)NCC2CCN(Cc3cccc(F)c3)CC2)c[nH]1 | -10.7% | 3.6%
Next compounds follow.
SMILES | VACV mCherry inh | VACV Venus inh
Cc1cc(C)cc(OCC(=O)NNC(=O)CC(C)c2ccccc2)c1 (centres undefined) | i | -22.8%
CC(=O)c1cccc(-c2cnc3c(NC=O)cc(-c4ccc(N5CCN(C)CC5)cc4)cn23)c1 | -0.5% | -6.0%
CN(C(=O)COC(=O)CNC(=O)c1ccc2ccccc2c1)c1c(N)n(Cc2ccccc2)c(=O)[nH]c1=O | -10.5% | -4.1%
N#CC1=C(N)Oc2cc(N)ccc2C1c1cc(Br)cs1 (centres undefined) | ? | ?
CCN(CC)C(=O)CSc1nc2ccc(NC(=O)CSc3nnc(COc4ccccc4C)n3C)cc2s1 | -10.3%[1.46 µM] | ?
Cc1nc2ccc(NC(=O)N3CCOCC3)cc2nc1C | -10.7% | 0.7%
COc1cccc(C(=O)N2CCN(C(=O)c3cccs3)CC2)c1OC | -9.5% | -11.1%
Cc1cc(C=O)c(C)n1-c1ccc(N2CCOCC2)cc1 | -8.0% | -17.7%
CN(C)C(CNC(=O)CCCN1C(=O)c2cccc3cccc(c23)C1=O)c1ccccc1 (centres undefined) | ? | -11.3%
CCN(CC)S(=O)(=O)c1ccc(Cl)c(C(=O)N2CCc3ccccc32)c1 | / | ?
Cn1c(SCC(=O)Nc2ccc3[nH]c(=O)[nH]c3c2)nnc1-c1ccccc1 | -14.5% | -9.4%
OCc1cnc[nH]1 | i | -13.2%
CCOc1ccccc1NC(=O)CCS(=O)(=O)c1ccc(OC)cc1 | -0.8%&-0.7% | -10.8%&-5.5%
CCS(=O)(=O)c1c(S(=O)(=O)CC)c2cc(C(C)(C)C)ccn2c1C(=O)c1ccc(F)cc1 | -14.4% | 1.5%
COc1ccc(C2=NOC(C(=O)NC(C)C)C2)cc1 (centres undefined) | -8.6% | -3.1%

Quoted from the listing.
CCS(=O)(=O)c1c(S(=O)(=O)CC)c2cc(C(C)(C)C)ccn2c1C(=O)c1ccc(F)cc1 | VACV Venus inh: 1.5%
OCc1cnc[nH]1 | VACV Venus inh: -13.2%
Cc1cc(C)cc(OCC(=O)NNC(=O)CC(C)c2ccccc2)c1 (centres undefined) | VACV Venus inh: -22.8%

(next part)
SMILES | VACV mCherry inh | VACV Venus inh
COc1ccccc1NS(=O)(=O)c1ccc(C)c(C(=O)Nc2cc(C)on2)c1 | -1.6% | -9.5%
COc1ccc(N(CCC#N)S(=O)(=O)c2ccc(Cl)cc2)cc1 | -15.4% | -6.7%
CCN(C(=O)COC(=O)CNC(=O)c1ccc(C)s1)c1ccccc1 | -14.0% | -10.6%
CC(=O)NC(C)(c1ccccc1)c1nc(-c2ccc(F)c(Cl)c2)cs1 (centres undefined) | i | -2.3%
O=C(COc1ccccc1)NC(=S)Nc1cccc([N+](=O)[O-])c1 | -0.1% | -12.3%
Cc1cccc(C)c1NC(=O)COC(=O)c1cc(=O)c2ccccc2o1 | -9.5% | -5.8%
COc1ccc(C(NC(=O)C2CCN(CCc3ccccc3)CC2)c2ccccn2)cc1 (centres undefined) | -12.2% | -19.7%
Cn1c(=O)c2c(c3ccccc31)OC(=O)CC2c1cccc(F)c1 (centres undefined) | -16.1% | -11.4%
CCC(C)NCCCCOc1cc(C)cc(C(C)C)c1 (centres undefined) | -14.2% | -22.6%
CCCc1cc(=O)oc2c(C)c(OCC(=O)N3C[C@H]4C[C@@H](C3)c3cccc(=O)n3C4)ccc12 | 9.6% | -3.4%
CCOC(=O)C(=O)CC(=O)c1ccc2c(c1)OCCO2 | i | -0.8%
COc1ccc(S(=O)(=O)N(CCc2ccccc2)CC(=O)NCc2ccccc2)cc1OC | -21.2% | -12.9%
CCC(NC(=O)Nc1nnc(C(F)(F)F)s1)(C(F)(F)F)C(F)(F)F | 3.55µM* | 2µM*
Cc1ccccc1NC(=O)/C=C/c1ccc([N+](=O)[O-])s1 | -17.5% | 167.3%[activator]
NC(Cc1ccc(Cl)cc1)c1csc(NC(=O)Nc2ccccc2-c2ccccc2)n1 (centres undefined) | ? | ?
O=C(NCc1ccccc1Cl)C1CCCN(c2nc3ccccc3n3cccc23)C1 (centres undefined) | -11.4% | -12.1%
COc1ccc(N2CCN(S(=O)(=O)c3ccc(OC)c(-c4noc(C)n4)c3)CC2)cc1 | -1.3% | -8.9%
O=C1CC(C(=O)Nc2ccc(F)cc2)S/C(=N\N=C\c2ccco2)N1 (centres undefined) | -23.0% | -9.9%
C=C(C)COc1ccc(-c2n[nH]c(C)c2-c2ccc(OC)cc2)c(O)c1 | / | 10µM*

Compound activity as filed in PubChem.
